MLL AF4-AF9 inh – inhibitors of human MLL-AF4/AF9 interaction; AID 651704; 350,000 compounds, 0.47% hits; inhibition, % at 10 µM; P42568; AlphaScreen, biotin-AF4 peptide binding to FLAG-AF9;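 active = every replicate reaching a set inhibition limit, whatever the replicate mean, cut at about 25% in these data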;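 note: 0% = plate neutral control median and 100% = total signal loss; the record names both 10 and 1 µM as test concentration; the first replicate is given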
Target sequence (P42568 whole entry, looked up): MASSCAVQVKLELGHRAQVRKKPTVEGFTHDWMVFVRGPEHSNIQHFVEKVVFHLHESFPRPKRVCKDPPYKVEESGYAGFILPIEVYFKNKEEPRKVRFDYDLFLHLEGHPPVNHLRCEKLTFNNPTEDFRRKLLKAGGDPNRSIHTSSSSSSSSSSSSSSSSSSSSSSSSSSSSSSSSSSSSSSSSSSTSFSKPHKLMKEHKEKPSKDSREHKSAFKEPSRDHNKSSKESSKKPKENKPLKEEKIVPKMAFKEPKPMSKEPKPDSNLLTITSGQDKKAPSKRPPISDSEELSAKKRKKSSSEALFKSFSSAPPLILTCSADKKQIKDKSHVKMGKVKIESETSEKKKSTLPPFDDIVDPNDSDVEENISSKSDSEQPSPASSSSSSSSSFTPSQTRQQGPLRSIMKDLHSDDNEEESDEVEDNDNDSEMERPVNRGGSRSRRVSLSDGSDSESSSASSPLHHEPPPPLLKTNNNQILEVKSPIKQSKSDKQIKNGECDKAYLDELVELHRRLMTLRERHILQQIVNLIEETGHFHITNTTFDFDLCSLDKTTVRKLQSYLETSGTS
Ecoli rRNA inh – inhibitors of bacterial rRNA selective over humanized ribosomes | E. coli WT GFP vs humanized-ribosome RFP mutants, fluorescence, 24 h; hits give low values; DMSO median 0, no signal -100 | GFP signal change (wild-type ribosome), % (no concentration beside the values) | 350,000 compounds, 1.6% hits | AID 720706;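 active = significant combined selectivity score with lowered wild-type GFP, culture density cut under 30%, mutant RFP and density less affected; inactive = any of these conditions unmet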; note: one replicate is shown; some compounds called inactive have numbers as strong as hits
Ecoli rRNA inh OD600 – further read-out of Ecoli rRNA inh, marked with its call; OD600 change, %; measured here: OD600 growth;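 optical density of the mix in the first replicate; 0 = DMSO median and -100 = no signal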
Ecoli rRNA inh RFP – further read-out of Ecoli rRNA inh, marked with its call; RFP signal change, %; measured here: RFP humanized mutant strains;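 first replicate; 0 = DMSO median and -100 = no signal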
The depositor's hits bear a star; & = joins results of further samples. An excerpt. The share of hits here may be higher or lower than overall.

entry | smiles | MLL AF4-AF9 inh | Ecoli rRNA inh | Ecoli rRNA inh OD600 | Ecoli rRNA inh RFP
1 | COc1ccc(S(=O)(=O)N(C)C[C@H]2Oc3cc(C#CC4CCCC4)ccc3S(=O)(=O)N([C@@H](C)CO)C[C@@H]2C)cc1 | -0.7 | -4 | -2 | -4.6
2 | Cc1noc(C)c1NC(=O)Nc1ccc2c(c1)CC(=O)N([C@H](C)CO)C[C@@H](C)[C@@H](CN(C)S(=O)(=O)c1c(C)noc1C)O2 | -2.0 | 4 | 8 | -0.1
3 | C[C@H]1CN([C@@H](C)CO)C(=O)Cc2cc(NC(=O)Nc3cccc4ccccc34)ccc2O[C@H]1CN(C)Cc1ccncc1 | 2.9 | -6 | -13 | 4.9
4 | COc1ccc2c3c(n(C)c2c1)[C@H](CO)N(CC1CC1)CC31CCN(C(=O)c2cccc(F)c2)CC1 | 1.9 | -1 | 5 | -0.1
5 | COc1ccc(S(=O)(=O)N[C@H]2C=C[C@H](CC(=O)N3CCN(c4ccccc4)CC3)O[C@@H]2CO)cc1 | -0.2 | -3 | -11 | 2.2
6 | O=C(NC1CC1)c1cccc(NC(=O)C2CCC2)c1 | -1.6 | -6 | 5 | -4.4
7 | CN(C)c1ccc(-c2csc(C(C)(O)c3cccc(F)c3)n2)cc1 (configuration not stated) | 4.4 | -62 | -75 | -20
8 | CCCNC(=O)Nc1ccc2c(c1)C(=O)N(C)[C@@H]1CC[C@@H](CC(=O)NCc3ccccc3)O[C@H]1CO2 | -9.7 | 2 | 1 | 1.8
9 | CCCC(=O)N1CCC2(CC1)CN(C(C)=O)[C@H](CO)c1c2c2ccc(OC)cc2n1C | 4.7 | -3 | 11 | -0.3
10 | O=C(Cn1nnc(N2CCOCC2)n1)NN=Cc1ccccc1Cl | 3.7 | 6 | 9 | 1.4
11 | O=C(C[C@H]1C[C@H]2c3cc(NC(=O)Nc4ccccc4F)ccc3O[C@H]2[C@@H](CO)O1)NCC(F)(F)F | -2.4 | 2 | 4 | 0.7
12 | C[C@@H](NC(=O)[C@@H]1CCCN1C(=O)[C@@H]1CCCN1C(=O)OC(C)(C)C)c1ccccc1 | -2.7 | 4 | 2 | -5.3
13 | C[C@H]1CN([C@@H](C)CO)S(=O)(=O)c2ccc(-c3ccncc3)cc2O[C@H]1CN(C)S(C)(=O)=O | -15 | 1 | 8 | 0.2
14 | COc1ccc(CN(C)C[C@@H]2Oc3c(NC(=O)Nc4ccc(C(F)(F)F)cc4)cccc3C(=O)N([C@H](C)CO)C[C@H]2C)cc1 | 2.9 | 0 | -8 | -2.7
15 | CO[C@@H](CN(C)S(=O)(=O)c1ccc(Cl)cc1)[C@H](C)CN(C(=O)Nc1ccccc1F)[C@H](C)CO | -2.0 | -2 | 6 | -4.6
16 | CO[C@@H]1CN(C)C(=O)c2cc(NC(=O)c3ccc(F)cc3)ccc2OC[C@@H](C)N(C)C[C@H]1C | -0.6 | 3 | 2 | 1.0
17 | C[C@H](CO)N1C[C@H](C)[C@H](CN(C)Cc2ccc(-c3ccccc3)cc2)Oc2ccc(NC(=O)Cn3cnnn3)cc2C1=O | -4.4 | -2 | 8 | 2.7
18 | COc1ccc(NC(=O)N(C)C[C@H]2OCCCC[C@@H](C)Oc3ccc(N(C)C)cc3C(=O)N([C@@H](C)CO)C[C@@H]2C)cc1 | 5.5 | -1 | 0 | -1.1
19 | Cc1ccccc1S(=O)(=O)NCC[C@H]1CC[C@@H](NC(=O)Nc2cccc(Cl)c2)[C@H](CO)O1 | 1.3 | -4 | -26 | 2.8
20 | CO[C@H]1CN(C)C(=O)c2cc(NC(=O)c3cnccn3)ccc2OC[C@@H](C)N(CCc2ccccc2)C[C@@H]1C | 3.6 | -7 | -12 | 1.7
21 | C[C@H](CO)N1C[C@H](C)[C@H](CN(C)S(=O)(=O)c2ccc(F)cc2)Oc2c(NC(=O)c3cnccn3)cccc2C1=O | -5.1 | -3 | 4 | -1.3
22 | O=C(Cc1ccccc1)N[C@H]1CC[C@H](CC(=O)N2CCOCC2)O[C@@H]1CO | -12 | 4 | 1 | 0.8
23 | Cc1cc(C(=O)Nc2cccc3c2O[C@@H](CN(C)Cc2ccccc2)[C@H](C)CN([C@@H](C)CO)C3=O)n(C)n1 | 1.7 | -3 | -12 | -0.3
24 | Cc1cc(C)cc(Cn2cc(CN3CC(N4CCSCC4)CS3(=O)=O)nn2)c1 (configuration not stated) | -1.5 | -4 | -9 | 0.1
25 | C[C@@H]1CN([C@H](C)CO)S(=O)(=O)c2ccc(C#CC3CCCC3)cc2O[C@@H]1CN(C)C(=O)Cc1ccncc1 | 6.0 | 1 | -16 | 6.7
26 | O=C(C1CC1)N1CC[C@H]2[C@H](CO)Nc3ccc(-c4ccc(F)cc4)cc3[C@H]21 | 8.8 | -3 | -9 | -1.3
27 | O=C(Cc1ccncc1)NCC[C@H]1CC[C@H](NS(=O)(=O)c2ccccc2Cl)[C@H](CO)O1 | -1.1 | -1 | 2 | 3.0
28 | O=C(NCc1ccc(Cl)c(Cl)c1)c1cc(C2CCCCN2C(=O)C2CCCCC2)on1 (configuration not stated) | -8.3 | 2 | 16 | -2.2
29 | COC(=O)N(C)C[C@@H]1OCc2ccccc2-c2ccccc2C(=O)N([C@@H](C)CO)C[C@@H]1C | -5.2 | 2 | 7 | -5.1
30 | C[C@@H]1CN([C@H](C)CO)C(=O)c2cccc(NC(=O)c3ccncc3)c2O[C@@H]1CN(C)S(C)(=O)=O | -2.9 | 4 | 9 | 1.9
31 | C[C@@H]1CN([C@@H](C)CO)C(=O)Cc2cc(NC(=O)Nc3ccc(F)cc3)ccc2O[C@H]1CN(C)Cc1ccncc1 | -0.8 | 1 | 1 | -0.2
32 | CN(C)C(=O)c1cccc(-c2cnc3c(NC=O)cc(-c4ccc(C(=O)N5CCOCC5)cc4)cn23)c1 | -2.7 | 5 | 2 | 0.8
33 | C[C@@H]1CN([C@@H](C)CO)S(=O)(=O)c2ccc(-c3ccc(F)cc3)cc2O[C@H]1CN(C)S(C)(=O)=O | 2.9 | -12 | -32 | 1.2
34 | CCCC(=O)N1CCC1(C)C(=O)Nc1ccc2c(c1)OCCO2 (configuration not stated) | -1.4 | 7 | 4 | 5.1
35 | CN1CCN(C(=O)C[C@H]2CC[C@@H]3[C@H](COc4ccc(NC(=O)C5CCCC5)cc4C(=O)N3C)O2)CC1 | 0.8 | 5 | 12 | -1.4
36 | Nc1ccc(S(=O)(=O)Nc2nccs2)cc1 | -2.4 | -4 | -4 | -5.7
37 | O=C(O)C[C@@H]1CC[C@@H]2[C@H](COC[C@H](O)CN2S(=O)(=O)c2ccc(F)cc2)O1 | -2.4 | 5 | 6 | -1.5
38 | C[C@H]1CN([C@@H](C)CO)C(=O)c2cc(NC(=O)C3CC3)ccc2O[C@@H]1CN(C)Cc1ccc2c(c1)OCO2 | -3.0 | 4 | -1 | -1.9
39 | CC(C)C[C@H]1CN([C@@H](Cc2ccccc2)CN2CCC[C@H]2CN2C(=O)C(=O)NC[C@@H]2Cc2ccc(O)cc2)C(=O)C(=O)N1CCc1ccccc1 | 0.0 | -35 | -54 | -2.9
40 | C[C@H]1CCCCO[C@@H](CN(C)S(=O)(=O)c2ccc(F)cc2)[C@@H](C)CN([C@@H](C)CO)C(=O)c2cc(NC(=O)NC3CCCCC3)ccc2O1 | -1.1 | 8 | 0 | 0.4
41 | O=C(NC1CCCCC1)N[C@H]1CC[C@@H](CCNS(=O)(=O)c2ccccc2)O[C@H]1CO | 0.3 | 1 | 0 | -2.2
42 | C[C@@H]1CN([C@@H](C)CO)C(=O)c2cc(NC(=O)C3CCCCC3)ccc2O[C@H]1CN(C)S(C)(=O)=O | 0.3 | -2 | -3 | 0.2
43 | CN1C(=O)c2cc(NC(=O)C3CCCC3)ccc2OC[C@H]2O[C@H](CC(=O)Nc3ccccc3)CC[C@@H]21 | 0.3 | 0 | -4 | 2.1
44 | C[C@@H]1CN([C@H](C)CO)C(=O)c2ccccc2-c2ccccc2CO[C@@H]1CN(C)C(=O)[C@@H]1CCCN1C | -1.4 | -1 | 2 | 1.4
45 | COCc1cn(CC[C@@H]2CC[C@@H](NC(=O)Nc3ccc(Cl)cc3)[C@H](CO)O2)nn1 | -0.8 | 1 | -1 | -0.8
46 | CC(C)COC(=O)N(C)C[C@@H]1OCc2ccccc2-c2ccccc2C(=O)N([C@@H](C)CO)C[C@@H]1C | -5.5 | 1 | 1 | 1.4
47 | CC(C)NC(=O)N(C)C[C@H]1Oc2c(NC(=O)Nc3cccc4ccccc34)cccc2C(=O)N([C@H](C)CO)C[C@@H]1C | -0.1 | 0 | -3 | -1.2
48 | COc1ccc(S(=O)(=O)Nc2ccc3c(c2)CC(=O)N([C@@H](C)CO)C[C@H](C)[C@@H](CN(C)Cc2ccc4c(c2)OCO4)O3)cc1 | 3.9 | -39 | -64 | 11
49 | COc1ccc(CN(C)C[C@@H]2Oc3ccc(NC(=O)Cc4cn(C)c5ccccc45)cc3CC(=O)N([C@@H](C)CO)C[C@H]2C)cc1 | 10 | -1 | -4 | 8.1
50 | C[C@H](CO)N1C[C@H](C)[C@@H](CN(C)C(=O)Cc2ccccc2)Oc2cc(C#CC3(O)CCCC3)ccc2S1(=O)=O | 2.0 | -2 | -18 | -1.3
51 | O=C(c1cccnc1)N1CC2(C1)[C@H](c1ccccc1)[C@H](CO)N2Cc1ccncc1 | -0.9 | -5 | -2 | -4.3
52 | C[C@H](CO)N1C[C@H](C)[C@H](CN(C)C(=O)Nc2ccc(F)cc2)OCCCC[C@H](C)Oc2ccc(NC(=O)c3ccccc3)cc2C1=O | -0.3 | -5 | 3 | 0.4
53 | C[C@@H]1CCCCO[C@H](CN(C)C(=O)CCC(F)(F)F)[C@H](C)CN([C@H](C)CO)C(=O)c2cc(NC(=O)c3ccccc3)ccc2O1 | 6.7 | -2 | -17 | -2.5
54 | Cc1noc(C)c1S(=O)(=O)Nc1ccc2c(c1)C(=O)N([C@H](C)CO)C[C@@H](C)[C@@H](CN(C)C(=O)NC(C)C)OCCCC[C@H](C)O2 | -1.1 | 4 | 1 | -1.6
55 | C[C@H]1CN([C@@H](C)CO)C(=O)c2cc(C3=CCCCC3)cnc2O[C@@H]1CN(C)C(=O)c1ccc(F)cc1 | 2.1 | -12 | -7 | -0.7
56 | Cc1cccc(C)c1NC(=O)C1(C)CCC(=O)N1CCOc1ccccc1 (configuration not stated) | 1.3 | 3 | 7 | 3.0
57 | COc1ccccc1S(=O)(=O)N(C)C[C@H]1Oc2ncc(-c3ccc(C)cc3)cc2C(=O)N([C@H](C)CO)C[C@@H]1C | 1.8 | -6 | -11 | 4.1
58 | C[C@@H]1CN([C@@H](C)CO)C(=O)c2cccc(NS(=O)(=O)c3ccccc3)c2O[C@H]1CN(C)Cc1ccncc1 | 0.2 | -4 | 5 | -2.2
59 | CC(C)C#Cc1cnc2c(c1)C(=O)N([C@@H](C)CO)C[C@@H](C)[C@H](CN(C)C(=O)Cc1ccccn1)O2 | -8.7 | -1 | -3 | -0.8
60 | CC(C)NC(=O)Nc1ccc2c(c1)C(=O)N(C)[C@H]1CC[C@@H](CC(=O)Nc3ccccc3)O[C@@H]1CO2 | 0.1 | 3 | 1 | -0.4

Grouped by structure, the entries above with a Cl atom (six)
entry | smiles | MLL AF4-AF9 inh | Ecoli rRNA inh | Ecoli rRNA inh OD600 | Ecoli rRNA inh RFP
10 | O=C(Cn1nnc(N2CCOCC2)n1)NN=Cc1ccccc1Cl | 3.7 | 6 | 9 | 1.4
15 | CO[C@@H](CN(C)S(=O)(=O)c1ccc(Cl)cc1)[C@H](C)CN(C(=O)Nc1ccccc1F)[C@H](C)CO | -2.0 | -2 | 6 | -4.6
19 | Cc1ccccc1S(=O)(=O)NCC[C@H]1CC[C@@H](NC(=O)Nc2cccc(Cl)c2)[C@H](CO)O1 | 1.3 | -4 | -26 | 2.8
27 | O=C(Cc1ccncc1)NCC[C@H]1CC[C@H](NS(=O)(=O)c2ccccc2Cl)[C@H](CO)O1 | -1.1 | -1 | 2 | 3.0
28 | O=C(NCc1ccc(Cl)c(Cl)c1)c1cc(C2CCCCN2C(=O)C2CCCCC2)on1 (configuration not stated) | -8.3 | 2 | 16 | -2.2
45 | COCc1cn(CC[C@@H]2CC[C@@H](NC(=O)Nc3ccc(Cl)cc3)[C@H](CO)O2)nn1 | -0.8 | 1 | -1 | -0.8

Next section.
entry | smiles | MLL AF4-AF9 inh | Ecoli rRNA inh | Ecoli rRNA inh OD600 | Ecoli rRNA inh RFP
61 | CS(=O)(=O)N1CC2(C1)[C@H](c1ccccc1)[C@H](CO)N2CC1CCCC1 | -17 | -7 | -3 | 0.5
62 | Cc1noc(C)c1NC(=O)N(C)C[C@H]1Oc2c(NC(=O)c3cnccn3)cccc2C(=O)N([C@H](C)CO)C[C@@H]1C | -4.2 | -1 | -2 | -2.9
63 | C[C@H]1CN([C@@H](C)CO)C(=O)Cc2cc(NC(=O)C3CCCCC3)ccc2O[C@@H]1CN(C)CC1CCCCC1 | 0.7 | -3 | 0 | 1.2
64 | C[C@H](CO)N1C[C@H](C)[C@H](CN(C)S(=O)(=O)c2cccs2)Oc2ncc(C#Cc3ccccc3)cc2C1=O | -1.1&0.4 | 3 | 1 | 3.9
65 | C[C@H](CO)N1C[C@H](C)[C@@H](CN(C)Cc2ccncc2)Oc2ccc(NC(=O)CCCCCC(=O)Nc3ccccc3N)cc2CC1=O | -1.8 | -3 | -1 | -1.5

High-throughput results as filed in PubChem BioAssay.
